D2 potentiator: potentiates the human D2 dopamine receptor allosterically. P14416. DiscoveRx D2 beta-arrestin cells, luminescence, 90 min; 100% = 57 uM dopamine signal. potentiation, % (no concentration beside the values). actives 0.23% (n = 360,000); active = potentiation of 50% or more; inconclusive = 30% to 50%; inactive = 30% or less;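 further: compound concentration not given in the record; tested on top of an EC20 dose of dopamine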
Target sequence (P14416 whole entry, looked up): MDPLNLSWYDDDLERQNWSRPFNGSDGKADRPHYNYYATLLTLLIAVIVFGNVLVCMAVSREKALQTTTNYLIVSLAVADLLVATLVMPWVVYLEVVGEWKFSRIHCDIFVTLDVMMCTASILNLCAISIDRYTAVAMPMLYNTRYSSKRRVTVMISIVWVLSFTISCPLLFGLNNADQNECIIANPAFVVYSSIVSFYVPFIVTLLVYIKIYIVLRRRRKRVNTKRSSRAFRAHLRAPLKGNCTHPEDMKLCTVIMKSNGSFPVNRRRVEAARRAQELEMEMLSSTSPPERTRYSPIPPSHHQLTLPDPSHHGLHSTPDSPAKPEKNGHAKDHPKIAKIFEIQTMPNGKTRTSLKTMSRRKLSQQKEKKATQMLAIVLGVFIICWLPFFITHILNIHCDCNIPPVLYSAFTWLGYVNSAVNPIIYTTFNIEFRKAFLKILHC
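D2 cells co-treated with compound plus 50 nM dopamine (EC20) for 90 min at 37 deg C to detect potentiation. Beta-arrestin recruitment was read as enzyme-fragment luminescence after 1 h at ambient temperature. Full response was set by 57 uM dopamine.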
TRPML1 agonist: human mucolipin-1 channel agonism. TRPML1-expressing cells, Ca2+ dye fluorescence, FDSS; host cell line not named in the record; reference of the full effect not given here. activation, % (no concentration beside the values). actives 0.12% (n = 410,000); in the data active = activation above about 50%; inconclusive = about 30% to 50%; inactive = below about 30%; further: 0% is about no effect; the text of the record puts the active cut at 80%
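Tetracycline-induced TRPML1-DL cells are seeded and incubated overnight before loading with a no-wash Ca2+ dye and quencher. Agonist activity is taken from the 110 s fluorescence read following compound pin-transfer on an FDSS, before EC80 54-4 challenge.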
TRPML1 blocker: human mucolipin-1 channel inhibition. actives 0.02% (n = 390,000). Q9GZU1. TRPML1-inducible cells, Ca2+ dye fluorescence, FDSS; active compounds read low; inhibition of EC80 agonist-evoked calcium signal. AID 624415. activity change, negative = inhibition, % (test concentration not listed); in the data active means activity change below about -50%; inconclusive means about -30% to -50%; inactive means above about -30%;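 further: stimulus is agonist 54-4 at its EC80 concentration; on the % scale 0 is the no-effect control and ±100 the full control effect; compound concentration not given in the record; the text of the record puts the active cut at -80%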
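Tet-induced TRPML1-DL cells loaded with Ca8 no-wash calcium dye were read kinetically on FDSS. Compound addition was followed by EC80 agonist 54-4 (4 uM final); inhibition was read over 110 s.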
D2 agonist: agonists of human D2 dopamine receptor (beta-arrestin). P14416. DiscoveRx PathHunter D2 beta-arrestin, luminescence, 90 min; 100% = 57 uM dopamine signal. activation, % (concentration not given with the values). actives 0.084% (n = 360,000). AID 624465; in the data active = activation above about 40%; inconclusive = about 15% to 40%; inactive = below about 15%; further: compound concentration not given in the record; the text of the record calls up to 30% inactive
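DiscoveRx PathHunter D2 beta-arrestin cells (2,100/well) attached overnight, then compound-stimulated 90 min at 37 C in HBSS/10 mM HEPES/0.1% Tween-20 buffer; beta-galactosidase complementation read by luminescence after 1 h at ambient temperature. Dopamine 57 uM final (EC100) as control.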
PINK1 expr mod: modulators of PINK1 expression; AID 624263; Potency, µM (series often up to 76.6 µM), without a hit: at the top dose activation (PINK1 increase), hits mostly activators; actives 0.2% (n = 410,000); PINK1 immunofluorescence, high-content cytometry, 24 h; active = well fitted activation curve with a large enough effect; inconclusive = small, poorly fitted or top-dose-only effect; inactive = flat fitted curve, though single readings scatter; cell line not stated here;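 further: potency means the concentration at half of the fitted maximal effect; % of control where 0% means no effect; nearly all actives have a fitted effect of over 65% in size; a mitochondrial uncoupler was the plate control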
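A stable cell line was treated with compounds at 5 concentrations for 24 hours, with CCCP as control. PINK1 levels and mitochondrial localization were measured by immunofluorescence with mitochondrial, cell and nuclear markers after fixation, read by laser-scanning cytometry.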
Six1-Eya2 inh: inhibitors of human Six1/Eya2 interaction | Q15475+O00167 | AlphaScreen GST-Six1/His-Eya2 binding, biochemical; active compounds read low; control for the full effect not named in the record | activity change, % (test concentration not listed) | actives 0.56% (n = 360,000) | AID 651725; in the data active = activity change below about -65%; inconclusive = about -30% to -65%; inactive = above about -30%; further: on the % scale 0 is the no-effect control and ±100 the full control effect
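GST-Six1 + His-Eya2 (5X stock: 250/500 nM); Tris pH 8.0, 300 mM NaCl, 0.05% BSA, 0.02% Tween 20; GSH donor/Ni acceptor beads; 1 h 37 °C dark; AlphaScreen readout.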
Numbers without * were called inactive; ? = inconclusive; . = not tested or not shown; & = joins results of further samples; [ ] = dose if it differs, or a comment.

SMILES	D2 potentiator	TRPML1 agonist	TRPML1 blocker	D2 agonist	PINK1 expr mod	Six1-Eya2 inh
CN(CC(=O)Nc1ccc(Cl)cc1)C(=O)c1ccc(S(=O)(=O)Nc2ccccc2)cc1	-14	1.4	6	0.6	-4.1%	4
Cc1ccc(OCCC(=O)OCC(=O)NC(=O)c2ccccc2)cc1	-69	2.7	2	-4.8	1.6%	33
COC(=O)[C@H](C)NC(=O)NCCC1=CCCCC1	-20	0.2	4	-1.7	-0.2%	1
COc1cc(OC)cc(-c2cc3nc(C)c(CCC(=O)NCc4ccc(Cl)cc4)c(C)n3n2)c1	.	0.9	-5	.	7.7%	.
CCCCNc1nc2c(S(=O)(=O)c3ccc(Br)cc3)nnn2c2ccsc12	.	0.3	28	.	1.5%	.
OC(c1cc(Cl)cc(Cl)c1)c1ncc(-c2cccc(F)c2)[nH]1 (stereo unspecified)	-5	2.3	.	6.0	?	-8
O=C(NCCc1nc2ccccc2[nH]1)c1ccc(Br)o1	-12	-0.8	-3	4.8	2.9%	0
Cc1ccc2oc(=O)c3cnn(CC(=O)N4CCN(c5ccccc5)CC4)c3c2c1	-3	0.9&-0.2	-6&0	1.3	-2.2%&2.3%	0
C[C@@H]1CCCCO[C@H](CN(C)S(=O)(=O)c2cn(C)cn2)[C@@H](C)CN([C@H](C)CO)C(=O)c2cc(NC(=O)c3ccncc3)ccc2O1	.	.	.	-2.8	-0.7%	4
COc1ccccc1C(=O)Nc1ccc(S(=O)(=O)N2CCCCC2)cc1	-4	0.5	-5	0.0	-1.3%	-9
CCc1ccc(NC(=O)[C@H](C)NC(=O)C2CCN(C(=O)[C@@H](N)Cc3ccccc3)CC2)cc1	-3	-0.3	0	0.0	0.3%	3
Cc1ccc(C(=O)NCc2ccccn2)cc1Cl	-9	0.2	35	-4.4	-0.1%	-7
CCOCCCNC(=O)CCNC(=O)c1cc(OC)c(OC)c(OC)c1	-1	0.3	2	-2.2	6.6%[38.3 µM]	0
COC(=O)c1c(NC(=S)Nc2ccc(CC(=O)O)cc2)sc(C)c1C	-2	0.3	30	-1.8	-0.1%	7
S=C(NCCc1ccc(Cl)cc1)NC1CCCCC1	-18	1.0	-2	-4.1	?	-1

Some values from the list.
Value for CN(CC(=O)Nc1ccc(Cl)cc1)C(=O)c1ccc(S(=O)(=O)Nc2ccccc2)cc1 under D2 agonist: 0.6
Value for COc1ccccc1C(=O)Nc1ccc(S(=O)(=O)N2CCCCC2)cc1 under Six1-Eya2 inh: -9

Sorted by value in PINK1 expr mod (smallest number first): some entries from above.
structure	D2 potentiator	TRPML1 blocker	D2 agonist	PINK1 expr mod	Six1-Eya2 inh
CN(CC(=O)Nc1ccc(Cl)cc1)C(=O)c1ccc(S(=O)(=O)Nc2ccccc2)cc1	-14	6	0.6	-4.1%	4
COc1ccccc1C(=O)Nc1ccc(S(=O)(=O)N2CCCCC2)cc1	-4	-5	0.0	-1.3%	-9
COC(=O)[C@H](C)NC(=O)NCCC1=CCCCC1	-20	4	-1.7	-0.2%	1
COC(=O)c1c(NC(=S)Nc2ccc(CC(=O)O)cc2)sc(C)c1C	-2	30	-1.8	-0.1%	7
CCCCNc1nc2c(S(=O)(=O)c3ccc(Br)cc3)nnn2c2ccsc12	.	28	.	1.5%	.
COc1cc(OC)cc(-c2cc3nc(C)c(CCC(=O)NCc4ccc(Cl)cc4)c(C)n3n2)c1	.	-5	.	7.7%	.

Back to the main list; the 5 compounds before the break are reprinted first.
SMILES	D2 potentiator	TRPML1 agonist	TRPML1 blocker	D2 agonist	PINK1 expr mod	Six1-Eya2 inh
CCc1ccc(NC(=O)[C@H](C)NC(=O)C2CCN(C(=O)[C@@H](N)Cc3ccccc3)CC2)cc1	-3	-0.3	0	0.0	0.3%	3
Cc1ccc(C(=O)NCc2ccccn2)cc1Cl	-9	0.2	35	-4.4	-0.1%	-7
CCOCCCNC(=O)CCNC(=O)c1cc(OC)c(OC)c(OC)c1	-1	0.3	2	-2.2	6.6%[38.3 µM]	0
COC(=O)c1c(NC(=S)Nc2ccc(CC(=O)O)cc2)sc(C)c1C	-2	0.3	30	-1.8	-0.1%	7
S=C(NCCc1ccc(Cl)cc1)NC1CCCCC1	-18	1.0	-2	-4.1	?	-1
O=C(Cn1c(NCCCO)nc2ccccc21)c1ccco1	-15	0.9	5	1.1	1.2%[38.3 µM]	7
COc1ccc(S(=O)(=O)N(C)C)cc1NC(=O)COC(=O)c1nc2nccc(C)n2n1	-11	-0.8	-9	-2.1	-0.1%	4
O=C(c1ccc(Br)cc1)N1CCN(CCc2ccncc2)CC1	.	0.2	-3	.	3.1%	.
c1ccc(-n2nnnc2NC2CCCCCC2)cc1	-22	-0.4	0	-1.4	-3.5%[38.3 µM]	2
CCN(CC(=O)NCc1cccs1)C(=O)c1ccc(S(=O)(=O)Nc2ccccc2)cc1	7	0.1	20	3.0	0.8%	6
C/C(=C\C(=O)c1ccc(F)cc1)NCc1ccc2c(c1)OCO2	7	-1.1	15	-3.4	-0.9%	-5
Cc1ccc(-c2nc(=S)c3c(n2Cc2cccnc2)CC(C)(C)OC3)cc1	-1	1.3	15	-4.2	0.5%	0
COc1cc(NC(=O)c2ccccc2)c(OC)cc1NC(=O)CN1C(=O)NC2(CCCCC2)C1=O	-1	0.3	-3	5.2	0.7%	-3
N#Cc1cn(-c2ccccc2)nc1-c1cc2ccccc2oc1=O	-19	3.3	-4	-4.2	-0.5%	1
Cc1cccc(NC(=O)CSCC(=O)N(C)CCOc2ccc(Cl)cc2)c1	1	0.8	3	1.4	-1.8%	1
CCC(Sc1nc2ncccc2o1)C(=O)Nc1cccc(C)c1 (stereo unspecified)	.	0.9	2	.	-0.7%	.
CCC1CCCCN1C(=S)NC(=O)c1cccc([N+](=O)[O-])c1 (stereo unspecified)	-4	-0.8	-9	-2.4	2.1%	2
COc1cccc2c1O/C(=N\O)C(C(=O)Nc1cccc(C)c1C)C2 (stereo unspecified)	-9	-0.8	-7	1.1	1.3%	7
COc1ccc(CCNC(=O)C(=O)NCC2OCCN2S(=O)(=O)c2ccc(OC)cc2)cc1 (stereo unspecified)	-1	-0.1	-4	-2.1	-0.2%	2
COc1cccc(OC)c1C(=O)NC(=O)Nc1c(F)c(F)c(F)c(F)c1F	-2	1.3	2	-3.2	0.6%	1
CC(Sc1nc(-c2ccccc2)cc(C(F)(F)F)n1)C(=O)NCCN1CCOCC1 (stereo unspecified)	-12	3.5	-1	-2.1	-0.7%[38.3 µM]	2
CCc1nc2ccccc2[nH]c1=O	-3	-0.5	20	0.9	-3.5%	-2
CCOC(=O)C1CCCN(CC(=O)c2ccc(F)cc2)C1 (stereo unspecified)	-20	-1.0	0	-5.3	0.2%	3
COc1ccc(C2CC(=O)C(C=NCCN3CCN(C(=S)Nc4ccccc4)CC3)=C(O)C2)cc1OC (stereo unspecified)	-5	0.2	-4	-1.8	0.6%	-1
COc1ccc(Cl)cc1NC(=O)Nc1cn(C)nc1C	-16	0.0	8	2.0	2.0%	0
Cc1cc(SCC(=O)OCC(=O)N(C)c2ccccc2)nc2ccccc12	-66	2.7	3	-4.1	-4.7%	5
CCc1nc(SCC(=O)c2ccc3c(c2)OCCO3)c2ccccc2n1	-17	1.6	-10	-5.7	2.8%	-1
O=c1c2ccccc2sn1-c1ccc(Cl)cc1	-11	0.7	-3	-16	26%	-7
COc1ccc(NC(=S)N(CCCN2CCCCCC2)Cc2cccs2)cc1	-3	-0.3	-1	0.0	1.6%	3
Cc1ccccc1NC(=O)C1C2C=CC(C3CC23)C1C(=O)O (stereo unspecified)	-8	0.1	4	0.2	2.9%	5
CC(C)n1c(SCCCc2ccccc2)nc2c1c(=O)[nH]c(=O)n2C	1	2.3	0	-0.2	3.4%	-3
C/C(=N\NC(=O)c1c(C)nc2ccccn12)c1ccco1	-1	-0.2	24	2.5	2.8%	6
CCCCc1cc(=O)oc2c3c(cc(OCC(=O)NCCCO)c12)OC(C)(C)CC3	5	0.7	-15	9.4	0.7%	-3
COc1ccc(-c2[nH]ncc2CN2CCCN(c3ccccc3)CC2)c(F)c1	-24	-0.5	0	-3.3	3.0%	-15
Cc1ccc2[nH]cc(CCNC(=O)c3ccco3)c2c1	-7	0.6	-12	-1.2	-0.4%	-9
CCC(=O)NC(NCC1CCCO1)C(Cl)(Cl)Cl (stereo unspecified)	-2	-0.1	5	-2.6	0.7%	5
CCC(=O)Nc1ccc(NC(=O)CSc2nnnn2C2CCCC2)cc1C	-2	-0.6	4	1.7	2.2%	5
COc1ccc(CC(=O)NCC(c2cccs2)S(=O)(=O)c2ccc(C)cc2)cc1 (stereo unspecified)	.	0.7	-6	.	1.7%	.
Cc1ccc2[nH]c3c(c2c1)CCCC3=O	-12	-0.9	8	-3.3	-0.1%	-3
COc1ccccc1CNc1nc(NCc2ccc(C)cc2C)c2sccc2n1	-19	-0.2	-10	-5.6	?	-18
COc1ccc(CCNC(=O)C(=O)NCC(c2ccc3c(c2)OCO3)N2CCOCC2)cc1 (stereo unspecified)	.	0.2	-8	.	0.9%	.
CCN(CC)S(=O)(=O)c1ccc2c(c1)c(=O)c(C(=O)N1CCN(c3cc(Cl)ccc3C)CC1)cn2C	.	-0.5	-14	.	1.4%	.
O=C1N(c2ccccc2)C(c2ccc(Cl)cc2)N2CCCN12 (stereo unspecified)	-20	-0.6	9	-4.5	-1.7%	-3

Assay outcomes: PubChem BioAssay, National Center for Advancing Translational Sciences (NCATS)
